Arbovirus inh – antivirals against arbovirus infection, primary screen, cell-based, full library, 10K replicate subset; inhibition, % at 10 µM; AID 1251, 2008; arbovirus infection cell-based antiviral screen; 200,000 compounds, 0.37% hits;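 active = inhibition from about 30%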;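 also: bluetongue infection of BSR cells; cell survival read as ATP light after 72 h; 0% = infected wells without compound and 100% = uninfected wells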
YopH PTP inh – YopH tyrosine phosphatase inhibitors, primary screen, biochemical, fluorescence Ex485/Em525. YopH tyrosine phosphatase [Yersinia enterocolitica]. inhibition, %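 (about 10 µM by stock and volumes)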. 140,000 compounds, 0.16% hits;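 active = inhibition of 50% or more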;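 also: controls were vehicle for no effect and minimum signal wells for full effect; inactives centre near -20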
Mtb bLac sens – beta-lactam sensitization of Mtb H37Rv, H37Rv; 330,000 compounds, 0.27% hits; inhibition, % at 25 µM; M. tuberculosis H37Rv growth with meropenem, percent inhibition; hits of this screen are not shown here;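 active = about 74% or more and at least 40 points above the plate without the antibiotic, then above 30% in a dose series; inconclusive = first-round hits that could not be retested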;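 also: growth measured after seven days incubation then overnight dye step; 0% = bacteria only wells and 100% = bacteria with antibiotic; twin plates without the antibiotic show which effects depend on it; some results filed as inactive read as strong as hits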
Mtb H37Rv – M. tuberculosis H37Rv growth inhibitors, H37Rv strain (AID 1626). M. tuberculosis H37Rv growth inhibition; higher % means a stronger effect. inhibition, % at 10 µM, or IC50 in µM where a hit was titrated. 220,000 compounds, 0.95% hits;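 active = confirmed in a dose series; inconclusive = inhibition above 80% but not taken into the dose series; inactive = below 80% or under 30% at every dose of the series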;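 also: bacteria incubated seven days before Alamar blue readout; 0% = bacteria only wells and 100% = bacteria with antibiotic wells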
RecA intein inh – Mtb RecA intein splicing inhibitors, primary screen, biochemical, fluorescence, HTS | Protein RecA (Mycobacterium tuberculosis (strain ATCC 25618 / H37Rv)), P9WHJ3 | cell-free RecA intein splicing | inhibition, %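 (about 9 µM by stock and volumes)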 | 290,000 compounds, 0.75% hits | AID 2221, 2009; in the data active = inhibition above about 30%; inconclusive = no clear call, values can overlap the other calls;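 also: 0% = vehicle wells and 100% = reference inhibitor control wells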
Target sequence (P9WHJ3 whole entry, looked up): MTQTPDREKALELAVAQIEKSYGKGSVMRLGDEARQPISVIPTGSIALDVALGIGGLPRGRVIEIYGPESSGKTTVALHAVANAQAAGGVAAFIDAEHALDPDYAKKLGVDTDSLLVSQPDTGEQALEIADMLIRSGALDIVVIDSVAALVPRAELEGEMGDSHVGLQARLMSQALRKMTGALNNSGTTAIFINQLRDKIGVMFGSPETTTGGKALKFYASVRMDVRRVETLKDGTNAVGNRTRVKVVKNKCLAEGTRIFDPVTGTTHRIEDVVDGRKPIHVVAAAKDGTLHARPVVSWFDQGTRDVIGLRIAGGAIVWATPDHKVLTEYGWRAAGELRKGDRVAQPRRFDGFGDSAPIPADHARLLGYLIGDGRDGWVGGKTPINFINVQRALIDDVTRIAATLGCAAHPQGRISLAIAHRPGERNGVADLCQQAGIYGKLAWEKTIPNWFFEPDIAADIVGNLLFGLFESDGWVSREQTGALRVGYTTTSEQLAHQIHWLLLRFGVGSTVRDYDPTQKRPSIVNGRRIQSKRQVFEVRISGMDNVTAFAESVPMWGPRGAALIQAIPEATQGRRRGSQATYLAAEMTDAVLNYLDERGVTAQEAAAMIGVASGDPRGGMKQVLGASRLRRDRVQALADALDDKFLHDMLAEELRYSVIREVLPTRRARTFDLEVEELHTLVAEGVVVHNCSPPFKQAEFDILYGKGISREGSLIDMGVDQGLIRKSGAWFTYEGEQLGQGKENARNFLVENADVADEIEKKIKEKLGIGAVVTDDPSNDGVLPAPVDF
Arbovirus inh repeat – also measured in Arbovirus inh; calls as there; inhibition, %; measured here: 10K subset replicate screen; many hits read low in the repeat;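 first of two repeat runs on a subset; 0% = infected and 100% = uninfected wells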
* hit, by the source's call; ? = inconclusive; / = no result given. These rows are one share of the data; rates above refer to the full screens.

Start of the data: the first two entries, ahead of the listing:
SMILES	Arbovirus inh	YopH PTP inh	Mtb bLac sens	Mtb H37Rv	RecA intein inh	others
CCOC(=O)N1CCN(c2ccc(Cl)cc2)CC1	-1	-26	-3	6%	0.5
Cc1ccc(Oc2nc3ccccn3c(=O)c2/C=C(\C#N)C(=O)NC2CCS(=O)(=O)C2)cc1 (stereo unspecified)	/	/	-9	7%	-56

Results, repeating the preview:
SMILES	Arbovirus inh	YopH PTP inh	Mtb bLac sens	Mtb H37Rv	RecA intein inh	others
CCOC(=O)N1CCN(c2ccc(Cl)cc2)CC1	-1	-26	-3	6%	0.5
Cc1ccc(Oc2nc3ccccn3c(=O)c2/C=C(\C#N)C(=O)NC2CCS(=O)(=O)C2)cc1 (stereo unspecified)	/	/	-9	7%	-56
C/C=C/CSc1nc2c(c(=O)[nH]c(=O)n2C)n1CCC	4	-34	-4	-3%	/
CCc1ccc(NC(=O)CSC2=C(C#N)C(c3ccc4c(c3)OCO4)CC(=O)N2)cc1 (stereo unspecified)	/	-66	6	41%	-1.0
NS(=O)(=O)c1ccc(CCNC(=O)CCCCCn2c(=S)[nH]c3ccc(Br)cc3c2=O)cc1	-1	/	-2	3%	0.4
CN(C)S(=O)(=O)N(CC(=O)NCCSCc1ccccc1)c1ccccc1	-2	/	-3	23%	-4.2
CCOC(=O)NC(=O)/C(C#N)=C\Nc1ccc(Cl)cc1Cl	-2	/	-4	7%	1.0
CCc1ccccc1NC(=O)c1cccc(NC(=O)/C=C/c2ccco2)c1	-2	-22	1	96%	5.8
O=C(O)/C(=C1\OC(=O)c2ccccc21)c1ccccc1	0	-48	-7	-1%	-0.9
CC(=O)Nc1sc2c(c1C#N)CCN(Cc1ccccc1)C2	/	/	6	/	-9.0
COCCCn1c(SCC(=O)O)nc2cc(OC)c(OC)cc2c1=N	4	/	2	-1%	1.1
CCn1c(=O)c(=O)[nH]c2c(=O)oc3ccc(S(=O)(=O)Nc4ccccc4)cc3c21	/	/	4	/	-2.5
CC(C)(O)/C=C1/Oc2ccccc2C1N1CCCCC1 (stereo unspecified)	7	-41	-3	-4%	3.2
CCC(=O)N(Cc1ccc(S(N)(=O)=O)cc1)C1CC(=O)N(c2ccccc2)C1=O (stereo unspecified)	-3	/	-8	-9%	/
CCOc1cc(S(=O)(=O)NC2CC2)c(OCC)cc1-n1cnnn1	7	-27	-1	-6%	-4.5
COC(=O)c1ccc2c(=O)n(Cc3ccc(C(=O)NC(C)C)cc3)c(=S)[nH]c2c1	-3	/	-1	5%	-1.4
Cc1cccc(C)c1N(CC(=O)NC1CCCCC1)C(=O)c1csnn1	/	/	16	/	-1.9
COc1ccc(NC2C=CS(=O)(=O)C2)cc1 (stereo unspecified)	7	-7	5	2%	-2.7
CC(=O)N/C(=C\c1ccc(F)cc1)C(=O)OCc1ccccc1	/	/	-5	/	-0.3
CCCC(=O)Nc1nnc(SCC(=O)Nc2ccc3c(c2)OCCO3)s1	2	/	-6	3%	-1.8
Cc1ccc(OCC(=O)N2CCN(S(=O)(=O)c3ccccc3[N+](=O)[O-])CC2)cc1	0	/	-2	4%	-0.1
Oc1[nH]c2ccccc2c1/C=N/N1CCCCC1	-6	0	5	/	-7.1
Cc1ccccc1NC(=O)C1c2ccccc2Oc2ccccc21	-3	-42	14	-3%	-2.0
Cc1cc(NC(=O)CCC(=O)N(CCc2ccccc2)C(C(=O)NC2CCCC2)c2ccco2)no1 (stereo unspecified)	2	-12	0	5%	-0.4
CNC(=O)c1[nH]cnc1C(=O)Nc1ccc(F)cc1	/	/	-3	/	-0.3
Next section
SMILES	Arbovirus inh	YopH PTP inh	Mtb bLac sens	Mtb H37Rv	RecA intein inh	others
CCn1c(=O)c(-c2nc3ccccc3[nH]2)c(O)c2ccccc21	-10	/	14	43%	1.7
COc1cc(NC(=O)CCc2nnc3ccc(N4CCN(C)CC4)nn23)cc(OC)c1	/	/	-2	/	-0.3
COc1ccc(C(=O)C[n+]2cccc(C(N)=O)c2)cc1	/	/	-10	/	2.6
Clc1ccc(Nc2nc3ccccc3n3nnnc23)cc1	-10	1	-7	3%	-5.9
COc1cc(S(=O)(=O)n2cnc(C)c2)ccc1Cl	0	/	8	-2%	-0.9
O=C(Nc1cc(Cl)ccc1Oc1ccccc1)c1ccccc1F	12	-17	-4	-5%	-0.6
CC(C)C/C(=N/O)c1c[nH]c2ccccc12	2	-2	-1	-3%	0.5
COc1cccc2c1OC1(CCN(C(C)C)CC1)N1N=C(c3cccnc3)CC21 (stereo unspecified)	/	/	3	-5%	-6.2
Cc1cc(OCC(=O)NCCCN2CCCC2=O)c2c(C)cc(=O)oc2c1	/	/	-4	/	4.2
CC(=O)COc1ccc2c(-c3cccc([N+](=O)[O-])c3)cc(=O)oc2c1	0	/	-8	9%	-2.4
COc1cc(/C=N/NC(=O)c2cccnc2)ccc1OCC(=O)N1CCOCC1	-2	-16	-5	0%	-3.4
CCCC(=O)NC(C)c1nc2ccccc2[nH]1 (stereo unspecified)	4	5	-15	-9%	1.3
Cc1nc(-c2ccccc2)sc1C(=O)NN	-13	/	100	23%	-2.2
CCOC(=O)C1CCN(C(=O)C2CCN(S(=O)(=O)c3cc(Cl)ccc3OCC)CC2)CC1	/	/	-10	/	0.0
CC1CCN(C(=O)c2cc3c(=O)n4ccccc4nc3s2)CC1	/	/	-5	/	-45
Cc1cc(C)c2c(n1)SCC(=O)N2CC(=O)Nc1c(C)cccc1C	/	/	?	/	0.6
CCC1(CC)Cc2ccccc2-c2nc(NN)[nH]c(=O)c21	/	/	-2	7%	-0.6
O=C(COc1ccccc1)N1CCN=C1SCc1cccnc1	0	-20	-2	2%	-1.2
O=C1c2ccsc2SCCN1Cc1ccc(F)cc1	/	/	-12	/	-4.0
CCn1c(=O)c2cc(C(=O)Nc3cccc(C(C)=O)c3)sc2c2ccccc21	/	/	6	/	-0.7
CC(C)CSc1nc2c(=O)[nH][nH]c(=O)c2n1Cc1ccccc1	4	-18	-4	-2%	1.1
COc1ccc(Cn2nc(C)cc2C)cc1OC	3	-28	3	6%	1.6
CC(C(=O)Nc1ccc(N(C)C)cc1)N1C(=O)c2ccccc2S1(=O)=O (stereo unspecified)	/	/	-3	/	-2.5
O=C(N[C@H]1CCCCNC1=O)c1cc(COc2ccc(F)cc2F)on1	/	/	2	/	1.1
COc1cc(NC(=O)c2cc(-c3ccco3)on2)c(OC)cc1Cl	-5	-47	5	/	0.0
The list goes on.
SMILES	Arbovirus inh	YopH PTP inh	Mtb bLac sens	Mtb H37Rv	RecA intein inh	others
O=C(c1ccc(-n2cccc2)cc1)N1CCOCC1	-10	-1	-12	97%	-3.6
COc1ccccc1N1CCN(C(=O)CCc2ccc(S(=O)(=O)NCC(C)C)cc2)CC1	5	-20	-3	-4%	-1.6
Cc1nc2ccc(S(=O)(=O)NC(C(=O)Nc3nccs3)C(C)C)cc2s1 (stereo unspecified)	4	-45	4	-8%	/	Arbovirus inh repeat=0
COc1ccc(C(=O)CSc2nnc(NC(=O)C3CC(=O)N(c4ccccc4C)C3)s2)cc1 (stereo unspecified)	9	-15	3	3%	-2.2
CN1CCN(c2nc3c(c(=O)[nH]c(=O)n3C)n2CC(N)=O)CC1	-6	-25	5	-4%	2.5
CN(Cc1c(C(=O)N2CCc3ccccc3C2)nc2ccc(Cl)cn12)C(C1CC1)C1CC1	-7	/	2	-4%	1.7
COc1ccc(C2Nc3ccccc3C(=O)N2NS(=O)(=O)c2ccc(C)cc2)cc1 (stereo unspecified)	13	/	-7	-5%	-2.6
Cc1cc(C)c2c(=O)[nH]cnc2n1	7	/	8	7%	-1.2
OC1CCN(C(=S)Nc2ccc(Nc3ccccc3)cc2)CC1	-9	/	-1	6%	-1.3
C=C1c2ccccc2NC(=S)N1Cc1ccc2c(c1)OCO2	-9	/	-2	3%	/
CCN(C(=S)NCc1ccccc1)c1cccc2ccccc12	-7	/	3	-3%	16
COc1cccc(CC(=O)OCC(=O)NC2(C#N)CCCCC2)c1	/	/	-6	/	-2.1
CCn1c(CC(=O)Nc2ccccc2)nnc1SCC(=O)Nc1ccccc1C(=O)OC	7	1	7	-22%	2.7
Cc1cc(N2CCCCCC2)nc(-c2ccccc2O)n1	1	-41	/	/	12
OC(COC1CCCCC1)CN1CCCCC1 (stereo unspecified)	/	/	-12	/	-0.4
Cc1ccc(NC(=S)NCCN2CCOCC2)cc1F	8	/	2	-11%	0.5
COc1cccc(SCc2noc(C(=O)NC(C)C)c2C(=O)O)c1	3	-6	2	-5%	-3.2
O=C(Nc1ccccc1)c1ccc(N2CCN(c3ccccc3)CC2)c(S(=O)(=O)N2CCOCC2)c1	-11	-23	-8	2%	/
Cc1ccc(SCCNCc2ccco2)cc1	/	/	-1	/	2.8
Cc1cc2cc(CN(Cc3ccco3)C(=S)NCC3CCCO3)c(=O)[nH]c2cc1C (stereo unspecified)	-10	-25	4	-7%	-0.2
CC1CN(C(=O)CCC(=O)NCc2ccccc2)c2ccccc2O1 (stereo unspecified)	/	/	-1	/	-1.9
CCOC(=O)C1(CCOC)CCN(Cc2ccc(COC)o2)CC1	3	/	-1	3%	2.2
CCOC(=O)N1CCN(C(=O)CCCn2c(=O)[nH]c3ccccc3c2=O)CC1	2	-31	-17	1%	-4.1
CC(C)C(O)C1CCN(Cc2nc(-c3cccs3)no2)CC1 (stereo unspecified)	0	/	2	-2%	0.4
O=C(CCn1nc(-c2ccccc2)ccc1=O)N1CCOCC1	6	-15	/	/	-2.2

Brought forward from above: two compounds, followed by the next part.
SMILES	Arbovirus inh	YopH PTP inh	Mtb bLac sens	Mtb H37Rv	RecA intein inh	others
CC(C)C(O)C1CCN(Cc2nc(-c3cccs3)no2)CC1 (stereo unspecified)	0	/	2	-2%	0.4
O=C(CCn1nc(-c2ccccc2)ccc1=O)N1CCOCC1	6	-15	/	/	-2.2
CC1CCN(C(=O)c2cc(F)c(F)cc2Cl)CC1	3	-8	-2	-1%	-0.3
COc1ccc(CNC(=O)C2CC(C)=C(C)CC2C(=O)O)cc1 (stereo unspecified)	2	43	-6	-14%	-2.9
CCCc1nc2oc3c(Cl)ncnc3c2c2c1CCCC2	/	/	1	11%	7.1
COc1ccc(NC(=O)Cc2coc3ccc4ccccc4c23)cc1S(=O)(=O)N1CCOCC1	9	-6	4	8%	3.3
O=C(c1ccc(Cl)cc1Cl)N1CCC(c2nc3c(nnn3Cc3ccco3)c(=O)[nH]2)CC1	-25	-45	-13	8%	6.5
O=C(c1n[nH]c2ccccc12)N1CCOCC1	4	/	-5	2%	3.3
CCn1c(CC(=O)Nc2ccccc2)nnc1SCC(=O)NC1=NCCS1	/	/	-3	/	-3.3
Cc1ccc(S(=O)(=O)N2CCN(C)CC2)c(C)c1N(C)S(=O)(=O)c1ccc(Cl)cc1	3	-15	6	2%	1.7
O=C(O)CSc1ccc2nnc(-c3cccnc3)n2n1	7	/	-6	1%	-2.3
C#CCNC(=O)C1=C[C@@H](c2ccc(C(F)(F)F)cc2)C[C@@H](OCCCCO)O1	-2	/	-3	-1%	2.7
Cn1nnnc1SCc1ccc(F)cc1	-7	-3	-7	-7%	-1.0	Arbovirus inh repeat=1
CCOC(=O)C1C(c2cccc(Cl)c2Cl)NC(=O)NC1(O)C(F)(F)F (stereo unspecified)	2	0	?	0%	0.4	Arbovirus inh repeat=4
C/C(N)=C(/C#N)C(=O)CSc1nc2ccccc2c(=O)n1-c1ccc(C)c(Cl)c1	-17	-21	11	0%	0.8
CC1(C)C(=O)OC(c2cccs2)C2(CCCCC2)C1=O (stereo unspecified)	9	-14	-4	2%	0.5
CNC(=O)CN(CCc1ccccc1)S(=O)(=O)c1ccc(OC)cc1	/	/	-1	/	-1.8
CCC(C)C(N)C(=O)NC(CCC(=O)OCc1ccccc1)C(N)=O (stereo unspecified)	3	-53	-14	-5%	-1.3
O=C1NC(=O)C(=Cc2ccc(N3CCOCC3)cc2)C(=O)N1	8	/	-3	8%	-2.7
Cc1ccc(NC(=O)CCC(=O)OCC(F)(F)C(F)F)cc1	1	-167	-3	-7%	4.1
CC(C)n1c(O)c(N=NC(=O)c2ccccc2NS(=O)(=O)c2cccs2)c2ccccc21	4	-23	-2	37%	-1.6
C=CC[N+]1(C)CC[C@]23c4c5ccc(O)c4O[C@H]2C(=O)CC[C@@]3(O)[C@H]1C5 (stereo partly specified)	/	/	-1	/	-1.5
O=C(NN=C1CCCC1)c1cc(-c2ccccc2)n[nH]1	0	-12	0	12%	-0.7
Cc1cc(C)n(-c2ccc(NC(=O)C3CCN(Cc4ccc(C)o4)CC3)cc2)n1	/	/	-4	/	-3.9
Cc1ccc(C(=O)NCC2CCCO2)o1 (stereo unspecified)	8	-69	-8	-9%	-1.0

Screens deposited in PubChem BioAssay by several laboratories.
